Screening data as filed in PubChem BioAssay.
Sfp PPTase inh: qHTS Assay for Inhibitors of Bacillus subtilis Sfp phosphopantetheinyl transferase (PPTase). Biochemical Sfp PPTase activity, qHTS. Potency, µM, for inactives: max response, negative = inhibition, actives largely listed as inhibitors. actives 3.5% (n = 310,000). AID 1490, 2009; active means well fitted inhibition curve with a large enough effect; inconclusive means small, poorly fitted or top-dose-only effect, or another doubt; inactive means no such curve, though single readings can be large or run the other way;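 further: the enzyme is Sfp with the accession as filed and its product quenches rhodamine fluorescence; 0% = enzyme reaction without inhibitor and -100% = no enzyme wells; top concentration of the series not given in the record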
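Compounds were incubated with enzyme (final 15 nM) for 15 min at room temperature before substrate addition started the reaction. Fluorescence at 525 nm excitation, 598 nm emission was recorded immediately and after 30 minutes.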
* = called active by the depositor; ? = inconclusive; & = joins results of further samples; ! = a repeat was not active. Potency means the concentration at half of the fitted maximal effect. The list is partial (hit frequency here may not be typical).

SMILES	Sfp PPTase inh
COC(=O)NC(c1cccc(F)c1)[C@@]1(C(=O)OC)CCCC1=O (stereo partly specified)	25%
CN(C)CCCn1cc(C2=C(c3c[nH]c4ccccc34)C(=O)NC2=O)c2ccccc21	-14%&-25%
CC[C@@H](C)CN1C(=O)N[C@@H](c2ccccc2)C(C(=O)OC)=C1C	-1%
C1OCOCO1	15%
CC1(C)S[C@H]2[C@@H](NC(=O)C(N)c3ccccc3)C(=O)N2[C@H]1C(=O)O (stereo partly specified)	-2%
COc1cccc([C@@H]2Oc3ccc(OC)cc3C(=O)[C@H]2OC(=O)NS(=O)(=O)c2ccc(F)cc2)c1	-30%
COC(=O)C(C(C)=O)C(NC(=O)NCc1ccccc1)c1ccccc1 (stereo unspecified)	-5%
C[C@H](O)[C@@H]1C(=O)N2C(C(=O)O)=C(SCCN=CN)C[C@@H]12	15%
CC1(C)C(=O)NC2=C1C(=O)C(=O)c1ccccc12	50µM*!
CC[C@H](C)[C@H](NC(=O)[C@H](CC(N)=O)NC(=O)[C@H](CCCCN)NC(=O)[C@H](Cc1ccccc1)NC(=O)[C@H](Cc1ccccc1)NC(=O)[C@H](Cc1cnc[nH]1)NC(=O)[C@@H](N)C(C)C)C(=O)N[C@H](C(=O)N[C@H](C(=O)N1CCC[C@H]1C(=O)N[C@@H](CCCN=C(N)N)C(=O)N[C@H](C(=O)N1CCC[C@H]1C(=O)O)[C@@H](C)O)[C@@H](C)O)C(C)C	-9%
C[C@H](NC(=O)[C@@H](N)Cc1ccc(O)cc1)C(=O)NCC(=O)N[C@H]1CSSC[C@@H](C(=O)O)NC(=O)[C@H](CO)NC(=O)[C@H]([C@@H](C)O)NC(=O)[C@H](Cc2ccccc2)NC(=O)[C@H]([C@@H](C)O)NC(=O)[C@H](CCCCN)NC(=O)[C@H](Cc2c[nH]c3ccccc23)NC(=O)[C@H](Cc2ccccc2)NC(=O)[C@H](Cc2ccccc2)NC(=O)[C@H](CC(N)=O)NC(=O)[C@H](CCCCN)NC1=O	1%
Cc1cc(/C=C/c2ccc3cc(N(C)C)ccc3[n+]2C)c(C)n1-c1ccccc1	-27%
Cc1nc(N2CCOCC2)c2nc(-c3ccccc3)n(C(C)CN(C)C)c2n1 (stereo unspecified)	15%
COc1ccc(-c2nnc3n2N=C(c2ccccc2OC)CS3)cc1	-7%
Cc1cccc(C2=N[C@@H](Cc3ccccc3)CO2)c1	-10%
CC(C)c1cccc2nc3c(c([Si](C)(C)C)c12)Cn1c-3cccc1=O	?
CN(C(=O)c1ccoc1)c1ccccc1I	-1%
Cc1nc(NCc2ccccc2)c2nc(-c3ccccc3)n(CCN(C)C)c2n1	6%
CC(C)C[C@H](NC(=O)[C@H](Cc1ccccc1)NC(=O)[C@H](Cc1ccccc1)NC(=O)[C@@H](N)CO)C(=O)N[C@@H](CCCN=C(N)N)C(=O)N[C@@H](CC(N)=O)C(=O)O	-2%
CCCCC/C=C\C/C=C\C/C=C\CCCCCCC(=O)O	-5%&13%
CCCCC[C@H](O)/C=C/C=C/C=C/[C@@H](O)C/C=C\CCCC(=O)O	-9%
Clc1cccc2c1CN(C1=NCCN1)C2	10%
C=CCC1C=CC(Oc2ccc(OC)cc2)C(CO)O1 (stereo unspecified)	-13%
CN(CCc1ccc(Cl)c(Cl)c1)CCN1CCCCCC1	25%&5%
O=c1[nH]c(=O)n(C2CC(O)C(CO)O2)cc1F (stereo unspecified)	-11%
CCCCS(=O)(=O)N1CCc2nc(-c3ccccc3)c3c(c2C1)CO[C@@H](C)C3	-14%
COc1cccc(-c2nnc3n2N=C(c2c(OC)cccc2OC)CS3)c1OC	4%
O=C(N/N=C1/C[C@@H](O)[C@@H](O)[C@@H]2[C@@H]3C(=O)N(Cc4ccccc4)C(=O)[C@H]3CC[C@H]12)OCc1ccccc1	13%
CCCCCN(C)CCC(O)(P(=O)(O)O)P(=O)(O)O	-5%
COC1C(O)C(CO)OC1n1cnc2c(NC3CCCCC3)ncnc21 (stereo unspecified)	5%

Sfp PPTase inh: hit marks shown above
SMILES	Sfp PPTase inh
CC1(C)C(=O)NC2=C1C(=O)C(=O)c1ccccc12	50µM*!

Later entries
SMILES	Sfp PPTase inh
CN(C)/N=N/c1nc[nH]c1C(N)=O	-11%&0%
CN1C(=O)N(C)C2=NNC=NC2(O)C1=O (stereo unspecified)	-25%
COC(=O)C1=C(C)N(Cc2ccccc2)C(=O)N[C@@H]1c1ccccc1	?
CCCCOc1cc(C[C@@H]2CNC(=O)N2)ccc1OC	21%
O=S(=O)(O)c1cc(I)c(O)c2ncccc12	2.5µM*
CC(C)n1cnc2c(NCc3ccccc3)nc(NCCCO)nc21	-13%
COC(=O)C[C@](O)(CCCC(C)(C)O)C(=O)O[C@@H]1C(OC)=C[C@]23CCCN2CCc2cc4c(cc2[C@H]13)OCO4	-6%
c1ccc(-c2nc(-c3ccccc3)c(Nc3ccc4ccccc4c3)o2)cc1	-3%
CC(C)(C)c1ccc2c(S(=O)(=O)O)c(C(C)(C)C)ccc2c1	3%
Cc1ccc(C(=O)NNC(=O)CSc2nnc(-c3ccncc3)n2-c2ccc(C)cc2)cc1	19%
Cc1c(C)c2c(c(C)c1O)CCC(C)(COc1ccc(Cc3sc(=O)[nH]c3O)cc1)O2 (stereo unspecified)	0%
C/C=C\C1=C(CO)C(=O)[C@@H]2OC2C1=O (stereo partly specified)	3.2µM*
CCC(C)C(NC(=O)OC(C)(C)C)C(=O)NC1COC2CC(n3cc(C)c(=O)[nH]c3=O)OC12 (stereo unspecified)	11%
C[C@H]1Cc2c(COc3ccccc3)nc3c(c2CO1)CN(C(=O)Nc1cccc(C#N)c1)CC3	14%
CC(=O)O[C@@H]1C(CO[Si](C)(C)C(C)(C)C)=C(Br)C(=O)[C@@H]2O[C@]12C	50µM*
COC(=O)[C@@H]1C[C@@H]2CC[C@@H](O)C[C@@H]2N1Cc1ccc(N2CCOCC2)cc1	-7%
COc1ccc(COC(=O)N/N=C2/C[C@@H](O)[C@@H](O)[C@@H]3[C@@H]4C(=O)N(Cc5ccccc5)C(=O)[C@H]4CC[C@H]23)cc1	6%
O=C(/C=C/c1ccc(/C=C/C(=O)Nc2ccc(C3=NCCN3)cc2)cc1)Nc1ccc(C2=NCCN2)cc1	?
CCCCCCCCC1OC1CCCCCCCC(=O)O (stereo unspecified)	13%
NCCC[C@@H](CC(=O)N[C@@H]1CCNC[C@H]1C(=O)N[C@H](CC(=O)N[C@@H](CCC(=O)O)CC(=O)O)Cc1ccccc1)NC(=O)C[C@H](CO)NC(=O)[C@@H]1CCCC[C@H]1N	-8%
Cc1cc(O)c2c(c1O)C(=O)C(O)=C(O)C2=O	45µM*
NS(=O)(=O)c1ccc(NC(=O)CCC(=O)O)cc1	2%
Cc1onc(-c2c(F)cccc2Cl)c1C(=O)N[C@@H]1C(=O)N2[C@H]1SC(C)(C)[C@H]2C(=O)O	4%
COC(=O)N[C@@H](c1cccc(F)c1)C(C(C)=O)C(=O)OC (stereo partly specified)	-7%
COc1cccc([C@H](O)Cn2cc(-c3cccc(CON=C(C)C)c3)nn2)c1	14%
COC(=O)CNC(=O)C1(C)C=CC2(CCCCC2)N1C(=O)OC (stereo unspecified)	16%
COC(=O)C(C(C)=O)C(=O)C(Cc1ccccc1)NC(=O)OCc1ccccc1 (stereo unspecified)	11%
CN1CCN(CC(O)c2ccccc2)CC1 (stereo unspecified)	-1%
C[C@@H]1CC[C@]2(C(=O)O)CC[C@]3(C)C(=CCC4[C@@]5(C)C[C@@H](O)[C@H](O)[C@@](C)(CO)C5[C@H](O)C[C@]43C)C2[C@H]1C (stereo partly specified)	14%
CC1(COc2ccc(C[C@H]3SC(=O)NC3=O)cc2)CCCCC1	-7%

Molecules shown so far containing an NH in an aromatic ring, in the order listed:
SMILES	Sfp PPTase inh
CN(C)CCCn1cc(C2=C(c3c[nH]c4ccccc34)C(=O)NC2=O)c2ccccc21	-14%&-25%
CC[C@H](C)[C@H](NC(=O)[C@H](CC(N)=O)NC(=O)[C@H](CCCCN)NC(=O)[C@H](Cc1ccccc1)NC(=O)[C@H](Cc1ccccc1)NC(=O)[C@H](Cc1cnc[nH]1)NC(=O)[C@@H](N)C(C)C)C(=O)N[C@H](C(=O)N[C@H](C(=O)N1CCC[C@H]1C(=O)N[C@@H](CCCN=C(N)N)C(=O)N[C@H](C(=O)N1CCC[C@H]1C(=O)O)[C@@H](C)O)[C@@H](C)O)C(C)C	-9%
C[C@H](NC(=O)[C@@H](N)Cc1ccc(O)cc1)C(=O)NCC(=O)N[C@H]1CSSC[C@@H](C(=O)O)NC(=O)[C@H](CO)NC(=O)[C@H]([C@@H](C)O)NC(=O)[C@H](Cc2ccccc2)NC(=O)[C@H]([C@@H](C)O)NC(=O)[C@H](CCCCN)NC(=O)[C@H](Cc2c[nH]c3ccccc23)NC(=O)[C@H](Cc2ccccc2)NC(=O)[C@H](Cc2ccccc2)NC(=O)[C@H](CC(N)=O)NC(=O)[C@H](CCCCN)NC1=O	1%
O=c1[nH]c(=O)n(C2CC(O)C(CO)O2)cc1F (stereo unspecified)	-11%
CN(C)/N=N/c1nc[nH]c1C(N)=O	-11%&0%
Cc1c(C)c2c(c(C)c1O)CCC(C)(COc1ccc(Cc3sc(=O)[nH]c3O)cc1)O2 (stereo unspecified)	0%
CCC(C)C(NC(=O)OC(C)(C)C)C(=O)NC1COC2CC(n3cc(C)c(=O)[nH]c3=O)OC12 (stereo unspecified)	11%

(continued)
SMILES	Sfp PPTase inh
COC(=O)C1=C[C@@H](C(=O)OC)C2C3=C(C(=O)[C@]2(C)NC(=O)c2ccccc2)[C@H](C)n2c(=O)n(-c4ccccc4)c(=O)n2[C@@H]3C1 (stereo partly specified)	-2%
C=C1CCN(C(Cc2ccccc2)C(=O)Nc2ccc(OC)cc2)S(=O)(=O)c2ccccc21 (stereo unspecified)	0%
COC(=O)[C@@]1(Cc2ccccc2)[C@H]2c3cc(C(=O)N4CCCC4)n(CCc4ccccn4)c3C[C@H]2CN1C(=O)c1ccccc1	3%
COc1ccc(OC)c(C2OCCC=CC2C)c1 (stereo unspecified)	11%
CC(=O)OC[C@H]1O[C@@](COC(C)=O)(O[C@H]2O[C@H](COC(C)=O)[C@@H](OC(C)=O)[C@H](OC(C)=O)[C@H]2OC(C)=O)[C@@H](OC(C)=O)[C@@H]1OC(C)=O	2%
Cc1ccc(O)cc1	7%
COc1ccc2[nH]c(-c3ccccc3)c(CCNC(C)=O)c2c1	11%&-2%
NOCc1ccccc1	-13%
CCCCCCCC/C=C\C/C=C\C=C\C(O)CCCC(=O)O (stereo unspecified)	9%
CCCC(=O)OC1(C(=O)CO)CCC2C3CCC4=CC(=O)CCC4(C)C3C(O)CC21C (stereo unspecified)	24%
COc1ccc(C2c3[nH]c4ccccc4c3CC3C(=O)N(CCc4ccc(OC)c(OC)c4)CC(=O)N32)cc1 (stereo unspecified)	-17%
CCC(C)C(NC(=O)OC(C)(C)C)C(=O)NC1COC2CC(n3ccc(=O)[nH]c3=O)OC12 (stereo unspecified)	10%
C=CC1=C2C=C(C3CC3)N(c3ccc(OC)cc3)C=C2C(=O)C(C)(OC(=O)c2ccco2)C1=O (stereo unspecified)	5%
CC(=O)O[C@]1(C(C)=O)CCC2C3CCC4=CC(=O)CCC4(C)C3(F)C(O)CC21C (stereo partly specified)	9%
C[C@H]1O[C@@H](n2cnc3c(N)ncnc32)C[C@@H]1OP(=O)(O)OP(=O)(O)OP(=O)(O)O	1%
CC(=O)Nc1ccn(C2OC(C(COC(C)=O)NC(=O)C(C)NC(=O)OC(C)(C)C)C(OC(C)=O)C2OC(C)=O)c(=O)n1 (stereo unspecified)	4%
Nc1ccc(/C=C/c2ccc(N)cc2S(=O)(=O)O)c(S(=O)(=O)O)c1	-20%
CCC(C)c1cc([N+](=O)[O-])cc([N+](=O)[O-])c1OC(=O)OC(C)C (stereo unspecified)	-12%
CCCCCCCC1=CC2=C(Cl)C(=O)C(C)(OC(C)=O)C(=O)C2=CO1 (stereo unspecified)	0%
COc1ccc(OC2C=CC(c3ccccc3)OC2CO)c(C(C)=O)c1 (stereo unspecified)	2%
O=C(O)c1c(C(=O)O)c2ccccc2[nH]c1=O	18%
C[C@]12CC[C@H]3c4ccc(OC[C@H]5CO5)cc4CC[C@H]3[C@H]1CC[C@@H]2O	-11%
COc1ccc([C@@H]2[C@@H](O)[C@H](O)[C@@H](C)N2C)cc1OC	-14%
CC(=O)OC1CCC2(C)C(=CC=C3C2CCC2(C)C3CCC2C(C)/C=C/C(C)C(C)C)C1(C)C (stereo unspecified)	7%
COc1cc2c(cc1OC)-c1cc3cc(OC)c(OC)cc3c(=O)n1CC2	16%
CC1(C)S[C@@H]2[C@H](NC(=O)COc3ccccc3)C(=O)N2[C@H]1C(=O)O (tested in a mixture with another compound)	4%
CC(C)[C@@H](CC(=O)N[C@@H]1CCCC[C@H]1C(=O)N[C@H](CC(=O)N[C@@H](CCC(=O)O)CC(=O)O)Cc1c[nH]c2ccccc12)NC(=O)C[C@H](Cc1ccccc1)NC(=O)[C@@H]1CCCC[C@H]1N	-7%
CC(C)(C)Nc1oc(-c2ccccc2)nc1-c1cccc2ccccc12	2%
COc1ccc(N2C=C3C(=O)C(C)(OC(=O)C4CCCC4)C(=O)C=C3C=C2c2ccsc2)cc1 (stereo unspecified)	-17%
Oc1cc2cc(CCN3CCN(c4nsc5ccccc45)CC3)c(Cl)cc2[nH]1	-8%
C=C(C)C1CC=C(CO)CC1 (stereo unspecified)	-2%
O=c1oc2cc(O)ccc2cc1-c1ccc2c(c1)OCCO2	-2%
COc1cc2ncnc(Nc3ccc(Cl)cc3F)c2cc1OC	0%
CC(C)CC(=O)N[C@H](C(=O)N[C@H](C(=O)N[C@@H](CC(C)C)[C@H](O)CC(=O)N[C@@H](C)C(=O)N[C@@H](CC(C)C)[C@H](O)CC(=O)O)C(C)C)C(C)C	2%
COC(=O)N[C@@H](CCc1ccccc1)[C@]1(C(C)=O)CCCC1=O	-2%
C#Cc1cccc(Nc2ncnc3cc(OC)c(OC)cc23)c1	19%
